Marburg entry inh – qHTS for inhibitors of binding or entry into cells for Marburg Virus; 1.8% of 300,000 active; Potency, µM (titrated, usually from 37.8 µM), for inactives: at the highest dose activity change, negative = inhibition, most hits filed as inhibitors; AID 540276, 2011; Marburg virus pseudotyped entry inhibition, cell reporter; control for the full effect not named in the record; about a third of the inactives were read at about 46 µM; active = well fitted inhibition curve with a large enough effect; inconclusive = small, poorly fitted or top-dose-only effect, or effect the other way; inactive = flat fitted curve, though single readings scatter; tested in HEK293 cells; about a fifth of its hits are not listed in these tables; note: % is set by controls: 0 for no effect and ±100 for the full control effect; luciferase read-out
Cruzain Triton – qHTS Assay for Promiscuous and Specific Inhibitors of Cruzain (with detergent) | Cruzipain (Trypanosoma cruzi), P25779 | purified cruzain, Z-FR-AMC fluorescence, 0.01% Triton | Potency, µM, for the others: max response, negative = inhibition, actives largely listed as inhibitors | 0.43% of 200,000 active;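 note: plate controls were neutral wells for no effect and buffer without enzyme for full effect; nearly all actives have a fitted effect of over 40% in size; top concentration of the series not given in the record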
Target sequence (P25779 123-467 limits assumed): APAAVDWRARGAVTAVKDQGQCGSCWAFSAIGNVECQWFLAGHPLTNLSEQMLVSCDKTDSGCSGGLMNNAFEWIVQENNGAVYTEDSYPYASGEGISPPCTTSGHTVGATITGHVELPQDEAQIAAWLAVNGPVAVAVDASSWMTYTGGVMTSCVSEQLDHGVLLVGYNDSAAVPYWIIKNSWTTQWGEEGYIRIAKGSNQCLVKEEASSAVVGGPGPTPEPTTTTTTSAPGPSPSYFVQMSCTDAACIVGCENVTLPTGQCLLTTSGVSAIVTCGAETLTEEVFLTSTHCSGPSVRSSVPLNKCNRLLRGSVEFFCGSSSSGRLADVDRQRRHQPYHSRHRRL
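Compounds were screened in titration against cruzain (1.5 nM) with 0.01% Triton X-100 to counter colloidal aggregation. Activity was the AMC fluorescence increase over 60 s after adding 2 uM Z-FR-AMC at pH 5.5.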
RE007 growth inh – qHTS Assay for Inhibitors of the HIV-1 protein Vpr; S. pombe RE007 Vpr strain, BacTiter-Glo ATP luminescence, 24 h; control for the full effect not named in the record; Potency, µM (titrated, usually from 92.2 µM), without a hit: at the highest dose activity change, negative = less growth; 0.21% of 360,000 active; AID 651644, 2012; active = well fitted falling curve with a large enough effect; inconclusive = small, poorly fitted or top-dose-only effect; inactive = no such curve, though single readings can be large or run the other way;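 note: % is set by controls: 0 for no effect and ±100 for the full control effect; nearly all actives have a fitted effect of over 50% in size; the assay follows cell death caused by Vpr and the record does not say whether a fall means rescue or toxicity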
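Fission yeast RE007 carrying one integrated HIV-1 vpr copy, seeded at OD 0.01 in PMG+AL medium with 23 nL pinned compound. Grown 24 h at 30 degrees; viability read by BacTiter-Glo luminescence after 5 min.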
2A StopGo – High Throughput Screening for Foot and Mouth Disease Virus Antivirals. 1.2% of 410,000 active. human cells with a luciferase reporter of 2A StopGo recoding; control for the full effect not named in the record. AID 1159524, 2015. Potency, µM (highest dose often 57.9 µM), for inactives: at the highest dose signal change, negative = less light; active = well fitted falling curve with a large enough effect; inconclusive = small, poorly fitted or top-dose-only effect; inactive = no such curve, though single readings can be large or run the other way; tested in HEK293T cells; note: % is set by controls: 0 for no effect and ±100 for the full control effect; nearly all actives have a fitted effect of over 45% in size; luciferase light after 4 h
LASV entry inh – qHTS for Inhibitors of binding or entry into cells for Lassa Virus | Lassa virus pseudotype entry inhibition, cell reporter; control for the full effect not named in the record | 1.2% of 300,000 active | Potency, µM (doses to about 37.9 µM), for the others: at the top dose activity change, negative = inhibition, actives largely listed as inhibitors; active means well fitted inhibition curve with a large enough effect; inconclusive means small, poorly fitted or top-dose-only effect, or effect the other way; inactive means flat fitted curve, though single readings scatter; tested in HEK293 cells; note: % is set by controls: 0 for no effect and ±100 for the full control effect; nearly all actives have a fitted effect of over 50% in size; luciferase read-out
NS1 inh – qHTS Assay for Inhibitors of Influenza NS1 Protein Function. Potency, µM (doses to about 46.1 µM), for inactives: at the highest dose activity, positive = more growth. S. cerevisiae slowed by influenza A NS1, growth recovery by OD600. AID 2326, 2010. 0.4% of 270,000 active; active means well fitted rising curve with a large enough effect; inconclusive means small, poorly fitted or top-dose-only effect; inactive means no such curve, though single readings can be large or run the other way; note: nearly all actives have a fitted effect of over 50% in size
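In this qHTS, NS1 from influenza A is expressed in budding yeast, where it slows growth. Cells are switched from glucose to 2% galactose medium (pH 6.0, -URA), treated with compound, and growth recovery is read at OD600.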
Cruzain noTriton – qHTS Assay for Promiscuous and Specific Inhibitors of Cruzain (without detergent). Cruzipain (Trypanosoma cruzi), P25779. purified cruzain, Z-FR-AMC fluorescence, no detergent. Potency, µM, without a hit: max response, negative = inhibition, most hits filed as inhibitors. 2.3% of 200,000 active. AID 1476, 2009;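 note: plate controls were enzyme without inhibitor for no effect and buffer without enzyme for full effect; nearly all actives have a fitted effect of over 40% in size; top concentration of the series not given in the record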
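Detergent-free condition (0.00005% Triton X-100) in acetate buffer pH 5.5 with DTT. 1.5 nM enzyme and compound were pre-mixed 15 min, then 2 uM Z-FR-AMC substrate added; reaction progress from fluorescence change between first and third reads (60 s).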
SARS PLpro yeast – qHTS of Yeast-based Assay for SARS-CoV PLP; S. cerevisiae expressing SARS-CoV PLpro, growth rescue; control for the full effect not named in the record; Potency, µM (titrated, usually from 32.9 µM), inactives show at the highest dose activity, positive = growth rescue; 0.19% of 330,000 active; active means well fitted rising curve with a large enough effect; inconclusive means small, poorly fitted or top-dose-only effect; inactive means no such curve, though single readings can be large or run the other way; note: 0% is about no effect; nearly all actives have a fitted effect of over 55% in size; growth read by luminescence after 48 h
Numbers without * were called inactive; ? = inconclusive; / = not tested or not shown; & = joins results of further samples; ! = not confirmed by another sample; [ ] = dose if it differs, or a comment. Unless noted, calls come from the whole dose curve; as a rule, active = well fitted curve in the direction sought with a large enough effect; inconclusive = small, poorly fitted or top-dose-only effect, or another doubt; inactive = no such curve, though single readings can be large; an effect the other way counts as inactive or inconclusive. Potency is the fitted concentration of half-maximal effect.

SMILES | Marburg entry inh | Cruzain Triton | RE007 growth inh | 2A StopGo | LASV entry inh | NS1 inh | Cruzain noTriton | SARS PLpro yeast
CCOC(=O)c1c(C)nc2sc3c(=O)n(-c4ccc(C(C)=O)cc4)nnc3c2c1-c1ccc(Cl)cc1 | -27% | 3.0% | 7% | -29% | -17% | -6% | 2% | 4%
O=C(CCn1c(=O)[nH]c2ccsc2c1=O)N1CC(=O)N(CCc2ccccc2)C(=O)C1 | -18%&-18% | -1.9% | 3% | -6% | ? | -8% | 4% | 5%
CCn1cc(C(=O)NCc2cccc(C(F)(F)F)c2)c(=O)c2ccc(C)nc21 | / | / | -2% | -25% | / | -1% | / | 1%
Cc1cccc(NC(=O)Cn2c(=O)ccc3cc(S(=O)(=O)N4CCCC4)ccc32)c1C | / | -1.7% | / | 0% | 4%[46.1 µM] | / | 7% | /
Cc1ccccc1CCN1CCCC(CN(C)C(=O)C(=O)c2ccco2)C1 (stereo not given) | 17% | / | 3% | 1% | 27% | -5% | / | 0%
CCOc1ccc(C2Sc3ccccc3NC3=C2C(=O)OC3)cc1 (stereo not given) | 13% | -8.2% | 11% | -13% | -9% | -4% | ? | 0%
O=C1NS(=O)c2cc([N+](=O)[O-])cc([N+](=O)[O-])c21 (stereo not given) | / | / | -3% | -17% | / | 1% | / | 0%
COc1ccccc1C(=O)Nc1nnc(SCc2cc(=O)c3cc(Cl)ccc3[nH]2)s1 | / | 0.1% | / | 21% | 14%[46.1 µM] | / | -8% | /
O=P(O)(c1ccc(Cl)cc1)c1ccc(Cl)cc1 | -29% | 5.0% | -14% | -25% | 2% | -2% | 1% | 5%
COc1cc(C)c(Br)cc1S(=O)(=O)NCc1ccncc1 | ? | / | 3% | 23% | ? | 4% | / | 0%
CC(C)=CCOc1ccc2c(C)c(CC(=O)N3C[C@H]4C[C@@H](C3)c3cccc(=O)n3C4)c(=O)oc2c1C | / | / | -7% | -8% | / | 17% | / | 4%
COc1ccc(NC(=O)c2c(Cl)n(C)c3ccccc23)cc1 | ? | -4.9% | -20% | -6% | -19% | 0% | -8% | -2%
CCOc1ccccc1C(=O)Oc1ccc2ccc(=O)oc2c1 | / | / | -9% | -28% | / | -106% | / | -17%
Cc1c(-c2nn(C)c(=O)c3ccccc23)oc2ccc(F)cc2c1=O | 15% | -5.0% | -22% | 8% | -18% | -4% | -7% | ?
COc1ccc(CNC(=O)CCc2c(C)c3cc4c(C)c(C)oc4cc3oc2=O)cc1 | 2%[46.1 µM] | -1.7% | / | 10% | 17%[46.1 µM] | / | 10% | /
Oc1c(I)cc(Cl)c2cccnc12 | 24% | 1.9%&6.9%&-0.4%&1.5% | 2%[18.4 µM] | -29%&11% | -15% | -39% | 13µM*! | -71%
CNS(=O)(=O)c1cc(Nc2ncnc3sccc23)ccc1C | / | / | -12% | ? | / | -2% | / | -1%
CN(C(=O)c1ccoc1)c1ccc2ccccc2c1 | / | / | 33% | -26% | / | -14% | / | 5%
CN1CCc2c(sc3c2c(=O)n(-c2ccccc2)c2nnc(SCc4ccccc4)n32)C1 | -9%&-9%&-9% | -6.4% | 4% | -2% | 0% | 6% | -19% | 1%
CC(C)(C)OC(=O)CNC(=O)c1[nH]cnc1C(=O)N[C@@H](Cc1ccccc1)C(=O)OC(C)(C)C | / | / | 0% | ? | / | -6% | / | 1%
COc1ccc(C(=O)NN2CCOCC2)cc1 | / | / | 4% | -4% | / | 0% | / | -1%
Cc1[nH]c2ccccc2c1C(=O)CSC(=S)N1CCN(C)CC1 | / | / | -5% | 41%[activator] | / | 8% | / | -1%
CN(C)c1ccc(C(CNC(=O)c2ccccc2)N2CCc3ccccc32)cc1 (stereo not given) | / | -28% | / | 16% | -6%[46.1 µM] | / | ? | /
Cc1ccc(NC(=O)C2CCN(c3nc4ccccc4nc3C(F)(F)F)CC2)cc1C | / | 2.8% | / | -19% | 17%[46.1 µM] | / | 0% | /
CCOc1ccc2ccccc2c1C1NC(=S)N(C)C(C)=C1C(=O)OC (stereo not given) | -13%[46.1 µM] | / | -4% | -23% | -18% | 24% | / | 3%
O=S(=O)(O/N=C1\CCCc2ccccc21)c1ccc(Cl)cc1 | -7%[46.1 µM] | 5.2% | 15% | -8% | ? | ? | -6% | 1%
CCOc1ccccc1NC(=O)CCc1nc(-c2cccc(C)c2)no1 | 1%[46.1 µM] | -8.1% | / | -15% | 21%[46.1 µM] | / | -10% | /
COc1ccc(-c2nn3c(=O)cc(CN4CCN(C(=O)Nc5cc(C)ccc5C)CC4)nc3s2)cc1 | / | 2.8% | / | -15% | ? | / | 0% | /
Cc1ccc(-n2nc3c(c2NC(=O)C(C)(C)C)CS(=O)(=O)C3)cc1 | / | / | -5% | -25% | / | 9% | / | -1%
COc1ccccc1CNC(=O)C1CCC(CNS(=O)(=O)c2cccs2)CC1 (stereo not given) | -29%[46.1 µM] | / | 3% | -10% | ? | -18% | / | -1%
Cc1cc(C)cc(N2C(=O)C3CC=CCC3C2=O)c1 (stereo not given) | -7% | 5.1% | 2% | -8% | -6% | -4% | 3% | 1%
Cc1cccc(-n2c(=O)c3c(c4cc(C)ccc4n3C)n(Cc3ccccc3F)c2=O)c1 | / | -11% | / | -2% | 4%[46.1 µM] | / | -16% | /
COc1ccc(CNC(=O)CN(Cc2ccco2)C(=O)CNS(=O)(=O)c2ccccc2)cc1 | ? | / | 46% | 20% | -2% | 6% | / | 3%
CCNC(=S)N1CCN(CC(=O)Nc2ccc(OC)cc2)CC1 | -6%[46.1 µM] | / | 0% | -14% | -3% | / | / | 0%
O=C(O)C1C(c2ccccc2)C(C(=O)Oc2ccccc2)C1c1ccccc1 (stereo not given) | -14% | 0.6% | -12% | -10% | -7% | 14% | 0% | -9%
COc1ccc(Cn2c(=O)[nH]c3cc(C(=O)N4CCN(c5ccccn5)CC4)ccc3c2=O)cc1 | 21%[46.1 µM] | / | 2% | -45% | 1%[46.1 µM] | / | / | 1%
Cc1cc(C)n(-c2nc3c(c(=O)n(C)c(=O)n3C)n2C)n1 | 1% | 7.0% | -4% | -18% | 3% | 3% | -4% | 5%
CCCC(C)c1nnc(NC(=O)CCS(=O)(=O)Cc2ccccc2)s1 (stereo not given) | 5%[46.1 µM] | / | -8% | -9% | 14% | 6% | / | 0%
CC(C)c1ccc(NS(=O)(=O)c2ccc3[nH]cc(C(=O)NCCc4ccccc4)c(=O)c3c2)cc1 | / | 1.5% | / | -5% | 4%[46.1 µM] | / | 7% | /
COc1cccc(OC)c1C(=O)NC(=S)Nc1ccc(N2CCOCC2)c(Cl)c1 | ? | / | -11% | 4% | 5% | ? | / | 0%
Cc1ccc2c(c1)c1c(c(=O)n(-c3ccccc3C)c(=O)n1CC(=O)NCC1CCCO1)n2C (stereo not given) | / | -4.4% | 1% | -11%&-1% | 11%[46.1 µM] | 7% | 10% | 0%
CCCCOC(=O)Nc1nnc(/C=C/c2ccc(OC)cc2)s1 | 30% | -5.0% | -5% | -15% | -7% | 4% | -18% | -19%
Cc1oc(-c2ccccc2F)nc1CS(=O)(=O)CC(=O)N1CCc2ccccc21 | / | -7.9% | -3% | -27% | / | -26% | -10% | -3%
O=C(NCCc1ccccc1Cl)C1CCN(S(=O)(=O)c2cccs2)CC1 | 7% | -2.0% | -4% | / | ? | 8% | 2% | -13%
Cn1c(=NC(=O)C2CC2)sc2cc(F)cc(F)c21 | / | -1.7% | -26% | 28% | / | -14% | -3% | -4%
CCC(C)Nc1nc(Cl)nc(NCCOc2ccccc2)n1 (stereo not given) | ? | -4.6% | -1% | -4% | 8% | -13% | -6% | 4%
Cn1c(O)c(/C=N/N2CCCCC2)c(=O)[nH]c1=O | ? | -2.9% | -4% | -10% | 0% | 12% | 4% | 12%
COc1cccc(C(=O)Nc2nc(-c3ccncc3)cs2)c1 | 7%[46.1 µM] | / | -8% | -15% | 27% | / | / | -3%
O=C(NCc1ccco1)C1CCCN1C(=O)Nc1ccccc1[N+](=O)[O-] (stereo not given) | 16%[46.1 µM] | / | -4% | -6% | 16%[46.1 µM] | -1% | / | -2%
COCCN(Cc1cc2cc(C)cc(C)c2nc1Cl)C(=O)Nc1ccccc1 | -14% | -9.2% | 8% | 12% | -6% | 3% | -5% | -14%

Remaining list, next part:
SMILES | Marburg entry inh | Cruzain Triton | RE007 growth inh | 2A StopGo | LASV entry inh | NS1 inh | Cruzain noTriton | SARS PLpro yeast
CC1=C(C(=O)N2CCOCC2)C(c2c(C)cc(C)cc2C)NC(=S)N1 (stereo not given) | 23%[46.1 µM] | / | -9% | -10% | 9%[46.1 µM] | / | / | 1%
COc1ccccc1NC(=O)CSc1nnc(-c2ccc(C)cc2)o1 | -23% | 3.1% | -6% | 44%[activator] | ? | -13% | 0% | 3%
O=S1(=O)N=C(Nc2cccc(C(F)(F)F)c2)c2ccccc21 | 22%[46.1 µM] | -5.8% | / | 45%[activator] | 1%[46.1 µM] | / | 19% | /
COc1ccccc1-c1ocnc1C(=O)N1CCN(C(=O)C(c2ccccc2)c2ccccc2)CC1 | ? | / | 2% | -12% | ? | -2% | / | 1%
O=C(Nc1cccc(-n2cnnn2)c1)c1cnccc1Cl | / | / | -4% | -9% | / | -4% | / | 1%
CC(=O)Nc1ccc2nc(NC(=O)COc3ccc(C)cc3)sc2c1 | 3% | / | 23% | 21% | ? | / | / | -6%
COc1ccc(N2CCN(S(=O)(=O)CCNC(=O)COc3ccc(Cl)cc3)CC2)cc1 | / | / | -3% | -13% | / | -1% | / | -4%
CN1C(=O)C(CC(=O)O)S/C1=N\N=C\c1ccc(O)cc1O (stereo not given) | / | / | -10% | -23% | / | 7% | / | 0%
Cc1cccc(NC(=O)CSc2nc3c([nH]c4ccccc43)c(=O)n2-c2ccc(F)cc2)c1C | / | 1.5% | / | -22% | ? | / | 18% | /
COc1ccc(CCNC(=O)c2cc(S(=O)(=O)N3CCCCC3)ccc2Cl)cc1 | ? | / | -19% | -15% | 5% | / | / | -5%

Screening data from PubChem.
